From PubChem
PINK1 expr mod: modulators of PINK1 expression | PINK1 immunofluorescence, high-content cytometry, 24 h | Potency, µM (titrated, usually from 76.6 µM), for inactives: at the highest dose activation (PINK1 increase), most hits filed as activators | actives 0.2% (n = 410,000); active = well fitted activation curve with a large enough effect; inconclusive = small, poorly fitted or top-dose-only effect; inactive = flat fitted curve, though single readings scatter; cell line not stated here;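 further: potency means the concentration at half of the fitted maximal effect; % of control where 0% means no effect; nearly all actives have a fitted effect of over 65% in size; a mitochondrial uncoupler was the plate control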
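PINK1 protein level read as immunofluorescence by microplate cytometer in a fixed, stained stable cell line after 24 h exposure to five compound concentrations, with CCCP as control.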
Six1-Eya2 inh: Six1/Eya2 interaction inhibition. Q15475+O00167. AlphaScreen GST-Six1/His-Eya2 binding, biochemical; stronger effect = lower value; control for the full effect not named in the record. activity change, % (test concentration not listed). actives 0.56% (n = 360,000). AID 651725; in the data active = activity change below about -65%; inconclusive = about -30% to -65%; inactive = above about -30%; further: on the % scale 0 is the no-effect control and ±100 the full control effect; compound concentration not given in the record
Target sequence (O00167 whole entry, looked up): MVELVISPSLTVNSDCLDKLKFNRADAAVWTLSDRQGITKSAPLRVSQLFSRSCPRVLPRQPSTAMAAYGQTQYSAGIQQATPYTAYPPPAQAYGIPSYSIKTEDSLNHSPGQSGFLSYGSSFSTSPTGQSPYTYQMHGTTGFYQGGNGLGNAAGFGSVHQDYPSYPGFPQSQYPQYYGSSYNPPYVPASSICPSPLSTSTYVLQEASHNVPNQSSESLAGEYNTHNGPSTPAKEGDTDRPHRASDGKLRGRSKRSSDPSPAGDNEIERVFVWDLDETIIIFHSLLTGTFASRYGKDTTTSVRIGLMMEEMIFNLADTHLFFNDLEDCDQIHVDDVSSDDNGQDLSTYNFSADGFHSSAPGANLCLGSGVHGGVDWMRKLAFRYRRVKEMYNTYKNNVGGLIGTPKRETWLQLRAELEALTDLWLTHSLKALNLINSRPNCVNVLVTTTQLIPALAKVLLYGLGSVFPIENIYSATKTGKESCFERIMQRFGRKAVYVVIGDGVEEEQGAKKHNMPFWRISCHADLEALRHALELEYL
Target sequence (Q15475 whole entry, looked up): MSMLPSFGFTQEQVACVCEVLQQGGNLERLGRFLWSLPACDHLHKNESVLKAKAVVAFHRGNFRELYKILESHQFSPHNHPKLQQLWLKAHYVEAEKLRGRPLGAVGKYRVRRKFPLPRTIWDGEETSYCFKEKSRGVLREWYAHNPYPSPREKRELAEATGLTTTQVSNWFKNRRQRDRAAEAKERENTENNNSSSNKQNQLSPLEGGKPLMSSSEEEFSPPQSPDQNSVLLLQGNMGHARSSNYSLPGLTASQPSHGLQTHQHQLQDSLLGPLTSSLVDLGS
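Compounds are tested against tagged Six1 and Eya2 proteins bridged by glutathione donor and nickel acceptor beads; after a one-hour incubation at 37 °C without light, AlphaScreen emission is recorded.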
TRPML1 ag: agonists of human TRPML1 channel. Q9GZU1. TRPML1-expressing cells, Ca2+ dye fluorescence, FDSS; host cell line not named in the record; reference of the full effect not given here. activation, % (test concentration not listed). actives 0.12% (n = 410,000). AID 624414; in the data active = activation above about 50%; inconclusive = about 30% to 50%; inactive = below about 30%; further: 0% is about no effect; the text of the record puts the active cut at 80%
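Agonist activity was taken from a 110 s kinetic Ca2+ dye read on the FDSS after pinning compounds onto TRPML1-DL cells. The cells were seeded at 1,500/well with Tet inducer, incubated about 16 h, then dye-loaded at room temperature.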
CtBP-E1A inh: blocks the CtBP interaction with E1A | AlphaScreen GST-E1A/His-CtBP binding, 1536-well; stronger effect = lower value; control for the full effect not named in the record | activity change, % (no concentration beside the values) | actives 0.49% (n = 340,000) | AID 651724; in the data active means activity change below about -65%; inconclusive means about -30% to -65%; inactive means above about -30%; further: on the % scale 0 is the no-effect control and ±100 the full control effect; compound concentration not given in the record
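Steps: dispense buffer (Tris pH 8.0, NaCl 300 mM, TCEP 1 mM, BSA, Tween 20); add 5X protein mix (GST-E1A, His-CtBP, 125 nM each); pin 23 nL compound; 2 h at 37 °C, dark; add 5X beads (50 ug/mL); 1 h; read.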
D2 agonist: activates the human D2 dopamine receptor | P14416 | DiscoveRx PathHunter D2 beta-arrestin, luminescence, 90 min; 100% = 57 uM dopamine signal | activation, % (no concentration beside the values) | actives 0.084% (n = 360,000) | AID 624465; in the data active = activation above about 40%; inconclusive = about 15% to 40%; inactive = below about 15%; further: compound concentration not given in the record; the text of the record calls up to 30% inactive
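DiscoveRx PathHunter D2 beta-arrestin cells (2,100/well) attached overnight, then compound-stimulated 90 min at 37 C in HBSS/10 mM HEPES/0.1% Tween-20 buffer; beta-galactosidase complementation read by luminescence after 1 h at ambient temperature. Dopamine 57 uM final (EC100) as control.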
TRPML1 inh: blocks the human TRPML1 channel | actives 0.02% (n = 390,000) | activity change, negative = inhibition, % (no concentration beside the values) | TRPML1-inducible cells, Ca2+ dye fluorescence, FDSS; stronger effect = lower value; inhibition of EC80 agonist-evoked calcium signal; in the data active means activity change below about -50%; inconclusive means about -30% to -50%; inactive means above about -30%;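 further: stimulus is agonist 54-4 at its EC80 concentration; on the % scale 0 is the no-effect control and ±100 the full control effect; compound concentration not given in the record; the text of the record puts the active cut at -80%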
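Tet-induced TRPML1-DL cells loaded with Ca8 no-wash calcium dye were read kinetically on FDSS. Compound addition was followed by EC80 agonist 54-4 (4 uM final); inhibition was read over 110 s.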
The depositor's hits bear a star; [ ] = dose if it differs, or a comment. Rows were taken by chance; 1% or so of the library scored in one or more.

Results for O=C1O[C@H]([C@@H](O)CO)C(O)=C1O ?
PINK1 expr mod: 1.3%; Six1-Eya2 inh: -3; TRPML1 ag: -0.3; CtBP-E1A inh: -1; D2 agonist: 2.2; TRPML1 inh: 7

What do the screens show for `c1ccc(CSc2ncnc3c2ncn3C2CCCCO2)cc1` (configuration not stated)?
PINK1 expr mod: 2.4%; Six1-Eya2 inh: 4; TRPML1 ag: -0.4; CtBP-E1A inh: 0; D2 agonist: -1.6; TRPML1 inh: 10

What do the screens show for `COc1ccc(S(=O)(=O)NCc2csc(C)n2)cc1OC`?
PINK1 expr mod: -2.2%; Six1-Eya2 inh: 5; TRPML1 ag: 2.4; CtBP-E1A inh: 8; D2 agonist: 7.0; TRPML1 inh: -18

Results for CCSc1nnc(-c2ccccc2NC(C)=O)c(=O)[nH]1 ?
PINK1 expr mod: -3.7%; Six1-Eya2 inh: 5; TRPML1 ag: 2.8; CtBP-E1A inh: 3; D2 agonist: -0.4; TRPML1 inh: -14

Results for O=C(O)c1ccccc1Nc1ccccc1 ?
PINK1 expr mod: 0.6%; Six1-Eya2 inh: 4; TRPML1 ag: -0.8; CtBP-E1A inh: -2; D2 agonist: -2.2; TRPML1 inh: 4

What do the screens show for `CCCN(CCC)Cc1cc(=O)oc2cc(OC)c(Cl)cc12`?
PINK1 expr mod: 3.3%; Six1-Eya2 inh: -3; TRPML1 ag: -0.5; CtBP-E1A inh: 9; D2 agonist: -2.2

What do the screens show for `CCc1nc2ccccc2c(C(=O)OCC(=O)NC2CC2)c1C`?
PINK1 expr mod: 1.9%; Six1-Eya2 inh: 3; TRPML1 ag: 1.0; CtBP-E1A inh: 1; D2 agonist: -1.2; TRPML1 inh: 3

What do the screens show for `CC(=NNC(=S)SCc1ccccc1)c1ccccn1`?
PINK1 expr mod: -1.4%; Six1-Eya2 inh: 0; TRPML1 ag: 1.2; CtBP-E1A inh: 2; D2 agonist: -6.7; TRPML1 inh: -2

Results for CCOC(=O)C1=C(O)/C(=C/c2cc(OC)c(O)c(OC)c2)SC1=Nc1ccc(OC)cc1 ?
PINK1 expr mod: 12%; Six1-Eya2 inh: -3; TRPML1 ag: 11; D2 agonist: 5.6; TRPML1 inh: 6

Results for Cc1c(C(=O)NCC2CCCO2)oc2ccc(S(=O)(=O)N3CCCCC3)cc12 (configuration not stated) ?
PINK1 expr mod: -0.2%; Six1-Eya2 inh: 4; TRPML1 ag: -0.5; CtBP-E1A inh: 4; D2 agonist: -0.9; TRPML1 inh: -1

Results for COC(=O)c1sc(S(=O)(=O)NCc2cccs2)c(C(=O)OC)c1C ?
PINK1 expr mod: inconclusive; Six1-Eya2 inh: 0; TRPML1 ag: 1.6; CtBP-E1A inh: 1; D2 agonist: 0.8; TRPML1 inh: 34

What do the screens show for `COC(=O)[C@@]1(Cc2ccc(F)cc2)[C@H]2c3cc(C(=O)N(C)C)n(CCc4ccc(OC)c(Br)c4)c3C[C@H]2CN1C(=O)c1ccccc1`?
PINK1 expr mod: 3.2%; Six1-Eya2 inh: -8; TRPML1 ag: -0.3; CtBP-E1A inh: -1; D2 agonist: -1.9; TRPML1 inh: -11

How did COc1ccccc1NC1=C(NC(C)=O)C(=O)c2ccccc2C1=O do in these assays?
PINK1 expr mod: 0.0%; Six1-Eya2 inh: -4; TRPML1 ag: 1.3; CtBP-E1A inh: 1; D2 agonist: 2.7; TRPML1 inh: 5

How did O=C(Nc1cc(=O)[nH]c2ncnn12)c1ccccc1Cl do in these assays?
PINK1 expr mod: 2.0%; Six1-Eya2 inh: -2; TRPML1 ag: -0.3; CtBP-E1A inh: -14; D2 agonist: -0.7; TRPML1 inh: 4

Results for CCOc1ccccc1NC(=O)N1CCCn2nc(C)cc21 ?
PINK1 expr mod: 0.5%; TRPML1 ag: -0.2; TRPML1 inh: -17

Reprinted from the part before: 3 entries, then new ones.
How did COc1ccccc1NC1=C(NC(C)=O)C(=O)c2ccccc2C1=O do in these assays?
PINK1 expr mod: 0.0%; Six1-Eya2 inh: -4; TRPML1 ag: 1.3; CtBP-E1A inh: 1; D2 agonist: 2.7; TRPML1 inh: 5

How did O=C(Nc1cc(=O)[nH]c2ncnn12)c1ccccc1Cl do in these assays?
PINK1 expr mod: 2.0%; Six1-Eya2 inh: -2; TRPML1 ag: -0.3; CtBP-E1A inh: -14; D2 agonist: -0.7; TRPML1 inh: 4

Results for CCOc1ccccc1NC(=O)N1CCCn2nc(C)cc21 ?
PINK1 expr mod: 0.5%; TRPML1 ag: -0.2; TRPML1 inh: -17

How did N#Cc1ccc(CN2C(=O)c3ccccc3Sc3ccc(C(=O)OCc4ccco4)cc32)cc1 do in these assays?
PINK1 expr mod: 0.6%; TRPML1 ag: 4.9; TRPML1 inh: 54

Results for COc1ccc(Cl)cc1NC(=O)CN(C)C(=O)CCSc1ccc(C)cc1 ?
PINK1 expr mod: 0.7%; Six1-Eya2 inh: -8; TRPML1 ag: 0.3; D2 agonist: -1.6; TRPML1 inh: 7

Results for Cc1ccc(NC(=O)c2cc(C(=O)Nc3ccc(C)cc3)n(C)n2)cc1 ?
PINK1 expr mod: 0.3%; Six1-Eya2 inh: 3; TRPML1 ag: -0.1; D2 agonist: -4.9; TRPML1 inh: 4

Results for COc1ccc(-n2cc(C#N)c(=O)n(Cc3ccc(F)cc3)c2=O)cc1 ?
PINK1 expr mod: 2.0%; Six1-Eya2 inh: 7; TRPML1 ag: -0.5; CtBP-E1A inh: -1; D2 agonist: -1.7; TRPML1 inh: -17

What do the screens show for `CCCNc1c(NS(=O)(=O)c2ccc(C3CCCCC3)cc2)c(=O)oc2ccccc12`?
PINK1 expr mod: 1.7%; Six1-Eya2 inh: 0; TRPML1 ag: -0.1; CtBP-E1A inh: -21; D2 agonist: 3.6; TRPML1 inh: -20

Results for CCc1nnc(SCc2ccc(F)cc2Cl)c2cc3sccc3n12 ?
PINK1 expr mod: 0.6%; TRPML1 ag: -0.6; TRPML1 inh: -2

What do the screens show for `CC1Cc2ccccc2N1C(=O)CSc1nnc(CSc2ncccn2)n1C` (configuration not stated)?
PINK1 expr mod: -3.6%[38.3 µM]; Six1-Eya2 inh: -1; TRPML1 ag: -0.3; CtBP-E1A inh: -2; D2 agonist: -3.5; TRPML1 inh: 17

What do the screens show for `O=C(CCN1C(=O)C2CC=C(Cl)CC2C1=O)N1CCCCC1` (configuration not stated)?
PINK1 expr mod: -0.6%; Six1-Eya2 inh: 5; TRPML1 ag: 1.0; CtBP-E1A inh: -1; D2 agonist: -3.9; TRPML1 inh: 8

What do the screens show for `COc1ccc(Nc2nc(-c3ccncc3)nc3ccccc23)cc1`?
PINK1 expr mod: 5.1%; Six1-Eya2 inh: -7; TRPML1 ag: 1.5; CtBP-E1A inh: 4; D2 agonist: 5.5; TRPML1 inh: 22

How did CC(C)(CCC(=S)N1CCOCC1)C1CCCCC1 do in these assays?
PINK1 expr mod: 2.3%; Six1-Eya2 inh: 3; TRPML1 ag: -0.5; CtBP-E1A inh: 11; D2 agonist: -3.9; TRPML1 inh: -15

How did CCCOc1ccc(F)cc1-c1cc(C(=O)Nc2ccc(OC)nc2)[nH]n1 do in these assays?
PINK1 expr mod: 0.9%; Six1-Eya2 inh: -6; TRPML1 ag: -0.4; CtBP-E1A inh: 2; D2 agonist: 5.0

Results for CC(=O)N[C@H]1[C@H](OC2CCCCC2)O[C@H](COC(C)=O)[C@@H](OC(C)=O)[C@@H]1OC(C)=O ?
PINK1 expr mod: 1.7%; Six1-Eya2 inh: -1; TRPML1 ag: 0.6; D2 agonist: 1.8; TRPML1 inh: 32

Results for CN(C)S(=O)(=O)c1ccc(C(=O)Nc2nnc(-c3ccc4c(c3)CCCC4)o2)cc1 ?
PINK1 expr mod: 2.2%; Six1-Eya2 inh: 4; TRPML1 ag: 1.7; CtBP-E1A inh: 0; D2 agonist: 1.4; TRPML1 inh: -14

What do the screens show for `Cn1c2ccc(F)cc2c2ncn(CCN3CCOCC3)c(=O)c21`?
PINK1 expr mod: 0.4%; Six1-Eya2 inh: -14; TRPML1 ag: -0.6; CtBP-E1A inh: -12; D2 agonist: -0.7; TRPML1 inh: -8

What do the screens show for `Cc1ccc(NC(=O)/C=C2\NC(=O)CS2)cc1`?
PINK1 expr mod: 2.1%; Six1-Eya2 inh: -3; TRPML1 ag: 0.1; CtBP-E1A inh: 3; D2 agonist: -2.0; TRPML1 inh: 10

Results for COc1ccc(NC(=O)c2nnn(CC(=O)Nc3c(C)cc(C)cc3C)c2N)cc1OC ?
PINK1 expr mod: 24%; TRPML1 ag: 0.9; TRPML1 inh: 46

How did COc1ccc(C2C(C#N)=C(N)OC3=C2C(=O)CC(C)(C)C3)cc1OC (configuration not stated) do in these assays?
PINK1 expr mod: 0.0%; Six1-Eya2 inh: 6; TRPML1 ag: 1.5; CtBP-E1A inh: 5; D2 agonist: 0.6; TRPML1 inh: 12

Results for Cc1ccc(S(=O)(=O)N2[C@@H](c3ccc(Cl)cc3)C(C(=O)O)=CC[C@H]2c2cccc(Cl)c2)cc1 ?
PINK1 expr mod: -0.4%; Six1-Eya2 inh: 7; TRPML1 ag: -0.5; CtBP-E1A inh: 9; D2 agonist: -1.1; TRPML1 inh: 54

Results for COc1ccccc1CNC(=O)Cn1cc([N+](=O)[O-])ccc1=O ?
PINK1 expr mod: -0.5%; Six1-Eya2 inh: -5; TRPML1 ag: -0.4; CtBP-E1A inh: 7; D2 agonist: -1.0; TRPML1 inh: -2

How did COc1ccc(CCNC(=O)C2CCN(C(=O)N(C)C)CC2)cc1OC do in these assays?
PINK1 expr mod: -0.9%[38.3 µM]; Six1-Eya2 inh: 0; TRPML1 ag: 0.3; CtBP-E1A inh: -2; D2 agonist: 0.5; TRPML1 inh: -2

Results for COc1ccc(-c2cnc3nc(/N=C/N(C)C)nn3c2/N=C/N(C)C)cc1 ?
PINK1 expr mod: -0.4%; Six1-Eya2 inh: -3; TRPML1 ag: 0.1; D2 agonist: 1.1; TRPML1 inh: 13

Results for Cc1ccc(C(=O)Nc2ccccc2C(=O)N2CCN(c3ccccc3)CC2)cc1 ?
PINK1 expr mod: 2.2%; Six1-Eya2 inh: -1; TRPML1 ag: 0.0; CtBP-E1A inh: -1; D2 agonist: -2.4; TRPML1 inh: -5

How did O=S(=O)(c1cccs1)N1CN(Cc2ccco2)c2nc3ccccc3nc21 do in these assays?
PINK1 expr mod: 0.9%; Six1-Eya2 inh: -9; TRPML1 ag: 3.4; CtBP-E1A inh: -12; D2 agonist: 3.7; TRPML1 inh: 51

How did Cc1ccc(-c2csc3nnc(SCC(=O)Nc4nsc(-c5ccccc5)n4)n23)cc1 do in these assays?
PINK1 expr mod: -3.4%[38.3 µM]; Six1-Eya2 inh: -3; TRPML1 ag: 3.2; CtBP-E1A inh: -6; D2 agonist: 1.8; TRPML1 inh: 13

What do the screens show for `C[C@@H]1CN([C@H](C)CO)C(=O)CCCn2nncc2CO[C@@H]1CN(C)C(=O)Nc1ccnc(N2CCOCC2)c1`?
PINK1 expr mod: 1.6%; Six1-Eya2 inh: 2; CtBP-E1A inh: 5; D2 agonist: -1.6
